VDR inh: inhibitors of human vitamin D receptor | P11473 | VDR-SRC2-3 peptide fluorescence polarization, 2 h | Potency, µM, inactives show max response, negative = inhibition, most hits filed as inhibitors | 400,000 tested, 0.93% active; active = well fitted inhibition curve with a large enough effect; inconclusive = small, poorly fitted or top-dose-only effect, or another doubt; inactive = no such curve, though single readings can be large or run the other way; also: series mostly up to about 120 µM
Target sequence (P11473 whole entry, looked up): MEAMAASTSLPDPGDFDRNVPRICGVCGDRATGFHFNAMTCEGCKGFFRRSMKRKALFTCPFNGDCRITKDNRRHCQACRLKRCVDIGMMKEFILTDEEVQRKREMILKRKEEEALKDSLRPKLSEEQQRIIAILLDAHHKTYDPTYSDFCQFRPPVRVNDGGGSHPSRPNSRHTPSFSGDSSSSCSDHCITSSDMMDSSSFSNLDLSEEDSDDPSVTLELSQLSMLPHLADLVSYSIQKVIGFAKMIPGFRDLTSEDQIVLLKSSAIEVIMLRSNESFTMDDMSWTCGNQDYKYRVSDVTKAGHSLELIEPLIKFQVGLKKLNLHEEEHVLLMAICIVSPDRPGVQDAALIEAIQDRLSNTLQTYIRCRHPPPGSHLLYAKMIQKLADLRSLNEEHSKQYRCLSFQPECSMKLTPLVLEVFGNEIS
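After 23 nl compound addition and a short centrifugation, plates sat for 2 hours at ambient temperature; polarization of fluorescence then indicated loss of VDR binding to peptide SRC2-3.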
Starred values were filed as active, the others as inactive; u = inconclusive; & = joins results of further samples; [ ] = another dose, or the depositor's remark. % is scaled to controls: 0 for no effect and ±100 for the full control effect; potency is read from the fitted curve at half-maximal effect.

Sample of the layout:
SMILES | VDR inh
COc1ccc2c(c1)c(N1CCCC1=O)c(C(=O)Nc1ccccc1C(F)(F)F)n2C | 13%
Cc1ccc(CC(=O)N2CCN(c3cccc(C(F)(F)F)c3)CC2)cc1 | -11%
COc1ccccc1NC(=O)COC(=O)c1c(C)nn(-c2ccccc2)c1C | 3%

The whole of this part, repeating the preview:
SMILES | VDR inh
COc1ccc2c(c1)c(N1CCCC1=O)c(C(=O)Nc1ccccc1C(F)(F)F)n2C | 13%
Cc1ccc(CC(=O)N2CCN(c3cccc(C(F)(F)F)c3)CC2)cc1 | -11%
COc1ccccc1NC(=O)COC(=O)c1c(C)nn(-c2ccccc2)c1C | 3%
O=C(c1ccc(COc2ccc(Br)cc2)o1)N1N=C(C(F)F)CC1(O)C(F)F (stereo not drawn) | -5%
CC(C)OC(=O)c1c(NC(=O)COc2cccc(Br)c2)sc2c1CCCC2 | -6%
Cc1ccc(-n2c(=O)c3c(cnn3C)n(CC(=O)Nc3ccc(C)cc3C)c2=O)cc1 | -1%
O=C(NCC1CCCO1)C(c1cccnc1)N(C(=O)Cc1cccs1)c1cccnc1 (stereo not drawn) | 6%
O=C(Nc1ccc(N2C(=O)CCC2=O)cc1Cl)c1cccs1 | -19%
COC(=O)c1ccc(NC(=O)c2ccccc2N(C)S(=O)(=O)c2ccccc2)cc1 | -10%
Cc1ccccc1Cn1c(=O)n(Cc2ccc3c(c2)OCO3)c(=O)c2oc3ccccc3c21 | 1%
CC1=C(C)/C(=N\OC(=O)/C=C/c2ccccc2)C=CC1=O | u
COc1cccc(CNC(=O)COC(=O)CN(C)S(=O)(=O)c2ccc(NC(C)=O)cc2)c1 | 9%
COCCN(C(=S)Nc1ccc(OC)cc1)C(C)c1cccs1 (stereo not drawn) | -15%
Cc1sc(NC(=O)CSc2nnc(COc3ccccc3)n2C)c(C#N)c1C | 32%[activator]
COc1cccc(CNC(=O)CC(NC(=O)c2ccccc2)c2ccccc2)c1 (stereo not drawn) | -20%
CCc1ccc(S(=O)(=O)c2nnn3c2nc(Nc2ccc(F)cc2)c2cc(Cl)ccc23)cc1 | 5%
COc1cc(-c2nc3cnccn3c2Nc2ccccc2)ccc1O | -13%
COc1ccc2oc(-c3ccncc3)cc(=O)c2c1 | -3%
O=C(c1cc(COc2ccc(F)cc2Cl)on1)N1CCN(c2cnccn2)CC1 | -4%
Cc1cc(C)c(C(=O)c2ccccc2)c(C)c1 | -23%

Continued; it opens with the 3 that closed the last part.
SMILES | VDR inh
COc1ccc2oc(-c3ccncc3)cc(=O)c2c1 | -3%
O=C(c1cc(COc2ccc(F)cc2Cl)on1)N1CCN(c2cnccn2)CC1 | -4%
Cc1cc(C)c(C(=O)c2ccccc2)c(C)c1 | -23%
O=C(CSCc1ccc(Cl)cc1)Nc1cccc(C(=O)Nc2ccccc2C(=O)O)c1 | -21%
O=C(NCC1CCCO1)c1cccc(NC(=O)c2ccccc2)c1 (stereo not drawn) | 19%
C=C(C(=O)c1ccccc1)C(C)CC(=O)c1ccccc1 (stereo not drawn) | 79µM*
CCN1CCN(c2ccccc2NC(=O)c2ccc(-n3cccn3)cc2)CC1 | -8%
CC(C)C(NC(=O)c1ccccc1Cl)C(=O)OCc1nc2scc(-c3ccccc3Cl)c2c(=O)[nH]1 (stereo not drawn) | -13%
Cc1cccc(C)c1NC(=O)c1oc2ccc3c(c2c1C)C(=O)CC(C)(C)O3 | 4%
CC(C)C(=O)Nc1ncc(Cc2cccc(Cl)c2)s1 | -7%
CCOc1ccc(-n2nnc3c(=O)n(CC(=O)c4ccccc4)cnc32)cc1 | -14%
CC(C)CC(c1nnnn1C(C)(C)C)N1CCN(Cc2ccccc2)CC1 (stereo not drawn) | 18%
COc1ccccc1C(=O)N/C(=C/c1ccc(Br)cc1)C(=O)NCCCn1ccnc1 | -7%
O=C1Cc2ccccc2Sc2ccc(O)cc21 | -7%
COc1ccc(OCc2cc(/C=N\NC(=O)c3ccccc3)ccc2OC)cc1 | 23%
COc1ccc2nc(SCc3ccccc3C)nc(C)c2c1 | -25%
CCc1noc(C)c1C(=O)Nc1ccc(S(=O)(=O)N2CCCCC2)cc1 | 4%
CCNC(=O)/C(C#N)=C/c1c(N(Cc2ccccc2)Cc2ccccc2)nc2ccccn2c1=O | -17%
CC1CCCC(NC(=O)COC(=O)/C=C/c2ccc(S(=O)(=O)N3CCOCC3)cc2)C1C (stereo not drawn) | 7%
COc1ccc(-c2cc(C(=O)NCc3ccccc3)c3c(-c4ccccc4)[nH]nc3n2)cc1 | 4%
COC(=O)c1cccnc1NC(=S)NC1CCCCC1 | -29%
Cc1cc(-c2csc(N)n2)c(C)n1-c1ccc(Cl)c(Cl)c1 | 4%
FC(F)(F)c1ccc(NC(=S)NCc2ccccc2)cc1 | -22%
FC(F)(F)c1cccc(N2Cc3ccccc3C2)c1 | 9%
Cc1ccc(C(=O)Nc2ccccc2N2CCN(C(=O)C(C)C)CC2)cc1 | 7%
Cc1nc2ccccc2c(=O)n1/N=C/c1ccncc1 | 7%
C[n+]1ccccc1/C=N/O | 3%&9%&-19%
COc1ccc(C(=O)NCC(=O)N2CCNC(=O)C2)cc1OC | 2%
Cc1c(C(=O)OCC(=O)NC(C)c2ccccc2)oc2ccccc12 (stereo not drawn) | 2%
CCCCNS(=O)(=O)c1ccc(S(=O)(=O)n2cnc3ccccc32)cc1 | -5%
CC(C)NS(=O)(=O)c1ccc(OCC(=O)Nc2ccc3c(c2)OCCO3)cc1 | 7%
N#Cc1ccc(-c2ccc(F)cc2)nc1Oc1ccc(Cl)c(Cl)c1 | -4%
O=C(COC(=O)c1cccnc1Cl)Nc1cccc(S(=O)(=O)N2CCCCC2)c1 | 1%
O=C(CN1C(=O)NC2(CCCC2)C1=O)OCC(=O)c1cccc(Cl)c1 | 10%
CCCC(=O)N1CCCC(c2nc(-c3cccc(OC)c3)no2)C1 (stereo not drawn) | -9%
O=[N+]([O-])C1=CC=C2C(=NC3(CCCCC3)N2O)C1=NCCO | -9%
COc1ccccc1OCC(=O)N(Cc1nc(-c2ccc(Cl)cc2)no1)C(C)C | -9%
COc1cc(/C=C/C(=O)NC(C)CCc2ccccc2)cc(OC)c1OC (stereo not drawn) | 2%
Cc1ccc(C2=NN(CC(=O)NCCCN(CC(C)C)CC(C)C)C(=O)CC2)cc1 | -5%
C[C@@H](CN1C2=NC[C@H](Cc3ccc(O)cc3)N2C[C@H]1Cc1ccc(O)cc1)NC(=O)CCC1CCCCC1 | 1%
CCN(CCO)C(=O)c1ccc2nc(Cc3ccc(OC)cc3)oc2c1 | -1%
COC(=O)C(Cc1cnc[nH]1)NC(=O)C1CCC(=O)N1 (stereo not drawn) | -7%
CCOC(=O)c1cnn(-c2ccc(C(=O)Nc3ccc(C(C)=O)cc3)cc2)c1N | -5%

Four of these compounds, set out differently.
| canonical_smiles | VDR inh |
| --- | --- |
| Cc1ccc(C2=NN(CC(=O)NCCCN(CC(C)C)CC(C)C)C(=O)CC2)cc1 | -5% |
| C[C@@H](CN1C2=NC[C@H](Cc3ccc(O)cc3)N2C[C@H]1Cc1ccc(O)cc1)NC(=O)CCC1CCCCC1 | 1% |
| CCN(CCO)C(=O)c1ccc2nc(Cc3ccc(OC)cc3)oc2c1 | -1% |
| COC(=O)C(Cc1cnc[nH]1)NC(=O)C1CCC(=O)N1 (stereo not drawn) | -7% |

The listing continues.
SMILES | VDR inh
CCOc1nc(-c2ccc(C)cc2)ccc1-c1noc(COC)n1 | -1%
Cc1ccc(NS(=O)(=O)c2c(C)[nH]c(=O)[nH]c2=O)cc1C | 1%
O=C(O)CN1C(=O)CSc2ccccc21 | -9%
Cc1cc2ccccc2c(=O)n1CC(=O)NCCC1=CCCCC1 | -1%
Cc1cccc(NC(=O)CCS(=O)(=O)c2cccc3nonc23)c1C | -6%
COc1cc2c(cc1OC)CN(C(=O)CSc1nc(N)c(C#N)cc1C#N)CC2 | 8%
CCOCCCn1cnc2c3cc(F)ccc3n(C)c2c1=O | -19%
COC(=O)CCC(=O)N1CCOCCOCCOCC1 | 12%
COc1ccc(-c2nc(C)c(CCNC(=O)C(=O)Nc3ccccc3C#N)s2)cc1OC | 18%
Cc1ccc(CNC(=O)CCOc2ccc(C(C)(C)C)cc2)cc1 | -16%
COC(=O)C1Cc2ccccc2CN1C(=O)CCl (stereo not drawn) | 7%
O=C(NN=Cc1ccc(O)cc1)c1ccccc1NS(=O)(=O)c1cccs1 | -9%
COc1cc2c(cc1OC)C(CSc1ccccc1C(=O)O)=NC(C)(C)C2 | -5%
O=C(COC(=O)C12CC3CC(CC(O)(C3)C1)C2)Nc1ccc(Cl)c(S(=O)(=O)N2CCOCC2)c1 | 18%
CCN1C(=O)[C@H]2[C@@H](c3ccc(C)cc3)N3C(=O)N(c4ccc(OC)cc4)C(=O)[C@@]3(C)[C@H]2C1=O | -20%
CC1=[N+]([O-])C(N2CCOCC2)C(O)(c2ccccc2)C1 (stereo not drawn) | 7%
COc1ccccc1CNCCSc1nnnn1C | 7%
CCOC(=O)C1=C(c2ccccc2)N(C)C(=O)NC1c1ccc(O)c(OC)c1 (stereo not drawn) | 19%
CCn1c(SCc2nc(CC(=O)Nc3ccccc3OC)no2)nnc1-c1cccs1 | -4%
N#C/C(=N\Nc1ccc(Cl)cc1)C(=N)N1CCCCC1 | -5%
O=C(O)c1ccc2c(c1)CC(c1ccccc1)OC2=O (stereo not drawn) | -5%
CC(C)(C)C1CCc2c(sc(NC(=O)CCC(=O)O)c2C(=O)Nc2ccccc2C(F)(F)F)C1 (stereo not drawn) | -19%
CCc1ccc(Nc2c([N+](=O)[O-])c(=O)oc3ccccc23)cc1 | 4%
COc1cccc(NC(=O)Cn2c(=O)n(-c3cc(OC)c(OC)c(OC)c3)c(=O)c3ccccc32)c1 | -2%
Cc1c(C(=O)Nc2ccc(F)cc2)oc2ccc(S(=O)(=O)N3CCCCCC3)cc12 | 6%
COc1ccccc1N1CCN(C2CCCN(Cc3cccc(O)c3)C2)CC1 (stereo not drawn) | -1%
Cc1ccc2[nH]ccc(=O)c2c1 | -18%
Cc1cc2nnc(SCC(=O)NCc3cccs3)n2c2ccccc12 | 8%
Cc1ccccc1-c1nc(CS(=O)(=O)CC(=O)NCCCN2CC(C)CC(C)C2)c(C)o1 (stereo not drawn) | 11%
Cc1ccc2nc(C3CCN(CC(=O)Nc4ccc5c(c4)OCCO5)CC3)[nH]c2c1 | 0%
CCCS(=O)(=O)N1CCC(C(=O)NCCCOCC)CC1 | 3%
Cc1c(N2CCCC2)cc2c(c1NC(=O)c1ccccc1Cl)C(C)(C)CC2(C)C | -4%
CCC(=O)NNc1nc2c(C)cccc2s1 | 16%
C/C(=N\NC(=O)c1cccs1)c1ccc2c(c1)OCO2 | -15%
COCC(C)n1c(SCc2cc(C(=O)OC)c(C)o2)nc2ccccc2c1=O (stereo not drawn) | -4%
COC(=O)c1ccc(CSc2nnc(-c3ccncc3)o2)o1 | -8%
CCN1CCN(C(=O)CN2C(=O)COc3ccc(S(=O)(=O)N4CCOCC4)cc32)CC1 | 13%
COc1ccc(-c2nc(C)c(C(C)=O)n2O)cc1[N+](=O)[O-] | -14%
COc1ccc(-c2csc3ncnc(Oc4cccc5ccc(C)nc45)c23)cc1 | -5%
O=C(Cc1ccccc1Cl)N1CCOCC1 | 10%
Cc1nc(SCC(=O)c2c[nH]c3ccccc23)n[nH]1 | -14%
CCN(Cc1nc2cc(Cl)ccc2c(=O)[nH]1)C(=O)c1ccc(C)c(NC(=O)c2ccco2)c1 | 5%
O=C(COC(=O)/C=C/c1ccc(C(F)(F)F)cc1)NCC1CCCCC1 | -5%
COc1ccc(N2CCN(S(=O)(=O)CCNC(=O)COc3ccccc3OC)CC2)cc1 | 9%
CN(Cc1ccccc1)C(=O)C1CCCN(Cc2cccc(Cl)c2)C1 (stereo not drawn) | 8%
COc1ccc(/C=N/Nc2c(Cl)cc(Cl)cc2Cl)cc1CN1CCOCC1 | 1%
COc1ccccc1C(=O)N1CCN=C1c1ccccc1 | 6%
COc1cc(C(=O)N2CCN(Cc3ccc4c(c3)OCO4)CC2)cc(OC)c1OC | -20%
CC(=O)OC1(C(C)=O)CCC2C3CC4OC45CC(O)CCC5(C)C3CCC21C (stereo not drawn) | 8%
CC(CC(=O)O)CC(=O)Nc1cc([N+](=O)[O-])ccc1O (stereo not drawn) | 9%
COc1ccc(-c2cc3ccccc3s2)cc1[C@H]1[C@H]2C=CC[C@@H](C)[C@@H]2C(=O)N1Cc1ccccc1 | -21%
COc1cccc(C(=O)COC(=O)c2cc(-c3cccs3)nc3ccccc23)c1 | -10%
COc1cc(C(=S)N2CCC(C(N)=O)CC2)ccc1O | -22%
CC(C)[C@H](NC(=O)N1c2ccccc2NC(=O)[C@@H]1C(C)C)C(=O)N[C@@H](Cc1c[nH]c2ccccc12)C(=O)O | -15%
C/C(=N\NC(=O)CSc1nc(C)cc(C)n1)c1ccc2c(c1)OCCO2 | -20%
COc1ccc(C(=O)CSc2n[nH]c(C)n2)cc1[N+](=O)[O-] | u
O=C(Nc1c2c(nn1-c1ccccc1)CS(=O)(=O)C2)c1ccccc1Br | -4%
COc1ccc(N(CC(=O)Nc2ccc(C(C)C)cc2)S(=O)(=O)c2c(C)noc2C)cc1 | -19%
O=C(CSc1nc2ccccc2c2nc(-c3ccccc3)nn12)Nc1ccc(F)cc1 | 6%
CCOC(=O)C1=C(C)NC(C)=C(C(=O)OCC)C1c1ccc(O)cc1 | -1%
COc1ccc(Nc2ncc(C(=O)N3CCN(c4ccc(OC)cc4)CC3)c3ccccc23)cc1 | -4%
CN(C(=O)CSc1nc2ccc(NC(=O)COc3ccccc3)cc2s1)c1ccccc1 | 3%

Not all compounds are listed; rates above refer to the full screens.
